Source: PubChem BioAssay
TRPML1 agonist = qHTS for Agonists of the Human Mucolipin Transient Receptor Potential 1 (TRPML1); TRPML1-expressing cells, Ca2+ dye fluorescence, FDSS; host cell line not named in the record; reference of the full effect not given here; activation, % (concentration not given with the values); 0.12% of 410,000 active; in the data active = activation above about 50%; inconclusive = about 30% to 50%; inactive = below about 30%; further: 0% is about no effect; the text of the record puts the active cut at 80%
Target sequence (Q9GZU1 whole entry, looked up): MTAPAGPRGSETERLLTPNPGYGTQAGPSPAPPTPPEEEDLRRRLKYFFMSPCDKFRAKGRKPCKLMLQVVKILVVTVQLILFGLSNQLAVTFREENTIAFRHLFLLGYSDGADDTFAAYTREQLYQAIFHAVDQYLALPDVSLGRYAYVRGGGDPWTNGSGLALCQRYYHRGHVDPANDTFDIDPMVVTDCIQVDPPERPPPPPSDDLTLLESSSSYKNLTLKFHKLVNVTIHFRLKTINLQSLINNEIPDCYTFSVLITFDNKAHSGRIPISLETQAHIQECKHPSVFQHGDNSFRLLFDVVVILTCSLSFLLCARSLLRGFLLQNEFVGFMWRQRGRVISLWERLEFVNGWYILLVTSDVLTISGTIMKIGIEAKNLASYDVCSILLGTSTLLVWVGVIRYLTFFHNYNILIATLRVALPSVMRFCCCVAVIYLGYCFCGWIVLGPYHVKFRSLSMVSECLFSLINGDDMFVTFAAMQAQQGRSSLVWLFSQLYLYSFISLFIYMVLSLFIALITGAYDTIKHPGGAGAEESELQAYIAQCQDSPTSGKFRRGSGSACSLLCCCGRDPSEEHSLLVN
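Calcium fluorescence on an FDSS kinetic reader gave the read-out. Tet-induced TRPML1-DL cells were plated overnight, dye-loaded (Ca8 with quencher, 45-90 min, room temperature, dark), then read 110 s after compound addition, and again 110 s after 4uM final 54-4 (EC80).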
D2 ag = Beta-Arrestin HTS for Positive Allosteric Modulators of the Human D2 Dopamine Receptor: Agonists | D(2) dopamine receptor (Homo sapiens), P14416 | DiscoveRx PathHunter D2 beta-arrestin, luminescence, 90 min; 100% = 57 uM dopamine signal | activation, % (test concentration not listed) | 0.084% of 360,000 active | AID 624465, 2012; in the data active = activation above about 40%; inconclusive = about 15% to 40%; inactive = below about 15%; further: compound concentration not given in the record; the text of the record calls up to 30% inactive
Target sequence (P14416 whole entry, looked up): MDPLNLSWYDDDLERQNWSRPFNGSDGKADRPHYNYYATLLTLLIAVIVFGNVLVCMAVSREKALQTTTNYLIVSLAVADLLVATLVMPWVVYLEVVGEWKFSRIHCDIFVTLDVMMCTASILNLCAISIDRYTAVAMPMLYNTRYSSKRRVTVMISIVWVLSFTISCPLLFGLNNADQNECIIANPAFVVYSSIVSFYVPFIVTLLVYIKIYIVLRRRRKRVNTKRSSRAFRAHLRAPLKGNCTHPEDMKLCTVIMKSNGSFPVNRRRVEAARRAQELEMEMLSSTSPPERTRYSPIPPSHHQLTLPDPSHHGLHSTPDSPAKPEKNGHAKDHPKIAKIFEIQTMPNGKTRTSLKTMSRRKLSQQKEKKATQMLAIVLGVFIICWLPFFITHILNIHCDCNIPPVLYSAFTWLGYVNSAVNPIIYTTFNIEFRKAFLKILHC
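DiscoveRx PathHunter D2 beta-arrestin cells (2,100/well) attached overnight, then compound-stimulated 90 min at 37 C in HBSS/10 mM HEPES/0.1% Tween-20 buffer; beta-galactosidase complementation read by luminescence after 1 h at ambient temperature. Dopamine 57 uM final (EC100) as control.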
Six1-Eya2 inh = qHTS Assay for Inhibitors of the Six1/Eya2 Interaction; Homeobox protein SIX1 (Homo sapiens) + Protein phosphatase EYA2 (Homo sapiens), …; 0.56% of 360,000 active; activity change, % (concentration not given with the values); AlphaScreen GST-Six1/His-Eya2 binding, biochemical; active compounds read low; control for the full effect not named in the record; in the data active = activity change below about -65%; inconclusive = about -30% to -65%; inactive = above about -30%; further: on the % scale 0 is the no-effect control and ±100 the full control effect
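AlphaScreen with GST-Six1 and His-Eya2 (5X mix: 250 nM and 500 nM), glutathione donor and nickel acceptor beads; buffer 50 mM Tris pH 8.0, 300 mM NaCl, 1 mM TCEP; 1 h at 37 C in the dark.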
D2 potentiator = Beta-Arrestin HTS for Positive Allosteric Modulators of the Human D2 Dopamine Receptor: Potentiators | D(2) dopamine receptor (Homo sapiens), P14416 | DiscoveRx D2 beta-arrestin cells, luminescence, 90 min; 100% = 57 uM dopamine signal | potentiation, % (test concentration not listed) | 0.23% of 360,000 active | AID 624464, 2012; active = potentiation of 50% or more; inconclusive = 30% to 50%; inactive = 30% or less;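 further: compound concentration not given in the record; tested on top of an EC20 dose of dopamine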
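D2 cells co-treated with compound plus 50 nM dopamine (EC20) for 90 min at 37 deg C to detect potentiation. Beta-arrestin recruitment was read as enzyme-fragment luminescence after 1 h at ambient temperature. Full response was set by 57 uM dopamine.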
PINK1 modulator = A Quantitative High throughput Screen to Identify Chemical Modulators of PINK1 Expression; PINK1 immunofluorescence, high-content cytometry, 24 h; Potency, µM (series often up to 76.6 µM), inactives show at the highest dose activation (PINK1 increase), most hits filed as activators; 0.2% of 410,000 active; AID 624263, 2012; active = well fitted activation curve with a large enough effect; inconclusive = small, poorly fitted or top-dose-only effect; inactive = flat fitted curve, though single readings scatter; cell line not stated here;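 further: potency means the concentration at half of the fitted maximal effect; % of control where 0% means no effect; nearly all actives have a fitted effect of over 65% in size; a mitochondrial uncoupler was the plate control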
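PINK1 protein level read as immunofluorescence by microplate cytometer in a fixed, stained stable cell line after 24 h exposure to five compound concentrations, with CCCP as control.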
TRPML1 inh = qHTS for Inhibitors of the Human Mucolipin Transient Receptor Potential 1 (TRPML1). 0.02% of 390,000 active. TRPML1-inducible cells, Ca2+ dye fluorescence, FDSS; active compounds read low; inhibition of EC80 agonist-evoked calcium signal. activity change, negative = inhibition, % (test concentration not listed). AID 624415, 2012; in the data active means activity change below about -50%; inconclusive means about -30% to -50%; inactive means above about -30%;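 further: stimulus is agonist 54-4 at its EC80 concentration; on the % scale 0 is the no-effect control and ±100 the full control effect; compound concentration not given in the record; the text of the record puts the active cut at -80%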
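TRPML1-DL cells, Tet-induced overnight (~16 h, 37 °C) at 1,500 cells/well, were loaded with Ca8 no-wash dye plus quencher for 45-90 min at room temperature. Compounds were pinned during FDSS kinetic reading; agonist 54-4 at EC80 (4 uM final) then added.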
Active calls of the source: *; ? = inconclusive; · = not tested or not shown; & = joins results of further samples; [ ] = remark or other dose. An unsorted share of the library; about 1% have a hit in one of these screens.

No.	structure	TRPML1 agonist	D2 ag	Six1-Eya2 inh
1	CN(Cc1c(F)cccc1Cl)C(=O)CNC(=O)c1cccs1	0.1	-4.1	-5
2	Cc1cc(NC(=O)c2cccc(C)c2[N+](=O)[O-])no1	0.7	-4.8	-6
3	CCCCN1C(=O)N(CCc2ccc(F)cc2)S(=O)(=O)c2cc(C(F)(F)F)ccc21	0.4	-1.3	20
4	Cn1c(SCC(=O)N2CCCC2)nnc1-c1ccc2c(c1)OCO2	1.1	6.7	4
5	COc1ccc2c(c1)c(CC(=O)O)c(C)n2C(=O)c1ccc(Cl)cc1	-0.6	-3.7	-8
6	CN1CCN(C(=S)Nc2cccc(S(=O)(=O)N(C)C)c2)CC1	-0.4	0.6	-2
7	CCOC(=O)Cn1cc(C#N)c2cccc(CC)c21	-0.2	-2.6	-3
8	CC[C@H](C)NC(=O)CCCCCn1c(=S)[nH]c2c([nH]c3ccc(OC)cc32)c1=O	0.3	2.7	-5
9	Fc1ccccc1-n1c(-c2ccc3ccccc3n2)n[nH]c1=S	0.0	2.7	-1
10	O=C1c2ccccc2C(=O)C12OC2c1cccc2ccccc12 (stereo unspecified)	2.1	-12	40

No.	D2 potentiator	PINK1 modulator	TRPML1 inh
1	-15	1.0%	11
2	-7	0.6%	25
3	·	2.7%	0
4	-1	0.3%	-1
5	2	3.0%	-13
6	-8	1.3%	-13
7	-21	0.9%	-6
8	-23	1.6%	2
9	-12	-0.8%	12
10	-40	8.1%	30

Next structures follow.
No.	structure	TRPML1 agonist	D2 ag	Six1-Eya2 inh
11	O=C(Nc1nnc(S(=O)(=O)N2CCCCCC2)s1)c1ccccc1Cl	-0.4&-0.3	2.5	-2
12	Cc1ccccc1-n1c(SCC(=O)NCC2CCCO2)nc2c([nH]c3ccccc32)c1=O (stereo unspecified)	-0.1	-12	5
13	CCN1CCN(C(=O)c2cc(COc3ccc(F)c(F)c3)on2)[C@@H](C)C1=O	0.8	-0.6	-1
14	C[C@H](NC(=O)c1[nH]cnc1C(=O)Nc1ccc(Cl)cc1)c1ccccc1	1.7	-1.7	-3
15	CC(CCO)Nc1nc2c(c(=O)n(C)c(=O)n2C)n1Cc1cccc(Br)c1 (stereo unspecified)	0.3	-0.6	-2
16	COc1ccsc1C(=O)N1CCN(Cc2ccc3c(c2)OCO3)CC1	2.4	-3.2	-3
17	O=C(Nc1cccc(Oc2c(F)c(F)c(F)c(F)c2F)c1)N1C[C@@H]2C[C@@H](C1)c1cccc(=O)n1C2	-0.3	-0.3	10
18	CC(C)(C)C(=O)c1cnc(Nc2ccccc2Cl)s1	1.3	-5.0	10
19	COc1ccc(S(=O)(=O)NCc2ccccn2)cc1C	-0.4	-2.7	0
20	COc1ccc(C(=O)N2CCCCC2c2cc(C(=O)NCc3ccccc3)no2)cc1 (stereo unspecified)	-0.6	-3.4	8

No.	D2 potentiator	PINK1 modulator	TRPML1 inh
11	-6	3.3%&1.6%	-17&10
12	-28	0.0%	1
13	-5	2.7%	-3
14	-17	0.3%	-4
15	6	2.4%[38.3 µM]	4
16	-45	0.3%	-3
17	-15	-0.1%	13
18	-12	2.4%	-10
19	-11	-0.3%	-6
20	-8	0.7%	·

Other results follow:
No.	structure	TRPML1 agonist	D2 ag	Six1-Eya2 inh
21	Cc1cc(NC2CCCCC2)n2c(n1)nc1ccccc12	0.5	-3.7	2
22	COc1ccc(N2CCN(C(=O)CN3C(=O)NC4(CCCCC4C)C3=O)CC2)cc1 (stereo unspecified)	-0.3	0.8	-3
23	CC(=O)Nc1ccc(NC(=O)C(C)Sc2nnc(C3CC3)n2-c2ccccc2)cc1 (stereo unspecified)	-0.7	-2.1	-3
24	CCCCN(Cc1ccccc1)c1ncnc2nc[nH]c12	6.6	-0.7	0
25	Cc1ccc2[nH]c3c(N4CCN(Cc5ccccc5)CC4)ncnc3c2c1	0.9	5.0	-28
26	Cc1c(C)c2ccc(OCC(=O)N3CCC(C(=O)O)CC3)cc2oc1=O	·	4.8	1
27	COc1ccc(CNC(=O)COC(=O)c2c(-c3c(F)cccc3Cl)noc2C)cc1OC	0.1	6.1	3
28	CCOC(=O)c1c(-c2ccc(C)o2)csc1NC(=S)NC(=O)N(C)C	-0.3	-5.2	-16
29	CCOC(=O)/C=c1\s/c(=C\c2ccccc2OC)c(=O)n1CC(=O)N1CCOCC1	-0.7	-4.0	1
30	CCOc1ccc(N(CC(=O)Nc2nccs2)S(=O)(=O)c2c(C)[nH]c(=O)[nH]c2=O)cc1	1.1	-4.8	-6

No.	D2 potentiator	PINK1 modulator	TRPML1 inh
21	-3	2.8%	-17
22	-1	1.0%	1
23	-2	-1.0%	-11
24	5	1.2%	-15
25	-20	-2.7%	-13
26	-25	1.1%	·
27	1	22%[38.3 µM]	-6
28	-9	9.2%[38.3 µM]	-6
29	-7	5.7%	14
30	-5	3.5%	-18

(further entries)
No.	structure	TRPML1 agonist	D2 ag	Six1-Eya2 inh
31	CCCN(Cc1cc2cccc(C)c2[nH]c1=O)S(C)(=O)=O	0.9	1.0	6
32	CCOC(=O)c1c(NC(=O)CSc2nnc3c(n2)[nH]c2ccccc23)sc2c1CCN(C)C2	0.2	-2.4	?
33	COc1ccc(-c2nnc(-c3cccs3)o2)cc1OC	1.1	0.5	-5
34	O=C(Nc1cccnc1)c1ccc(NS(=O)(=O)c2cc([N+](=O)[O-])ccc2Cl)cc1	1.2	3.9	-1
35	CCOc1ccccc1C1C(C(=O)OC)=CN(C)C=C1C(=O)OC	0.2	-1.3	8
36	CCCCOc1ccc(C(=O)NCC(=O)OCCCOC(=O)CNC(=O)c2ccc(OCCCC)cc2)cc1	0.5	0.7	3
37	O=C(NCc1ccccn1)C(F)(F)C(F)(F)C(=O)NCc1ccccn1	-0.7	-4.3	-29
38	COc1ccc(C(C(=O)NC2CCCCC2)N(C(=O)c2ccco2)c2ccccc2C(C)=O)cc1 (stereo unspecified)	0.0	-2.2	-8
39	COc1ccc(Cl)cc1NC(=O)Nc1ccc(C(=O)N2CCCC2)cc1	0.7	6.9	1
40	O=S(=O)(c1ccc(SCc2ccccc2)nc1)N1CCCCC1	2.1	1.9	-6

No.	D2 potentiator	PINK1 modulator	TRPML1 inh
31	0	4.2%	20
32	-28	1.9%	13
33	2	-3.0%[38.3 µM]	-8
34	10	0.5%	-3
35	5	0.7%	-5
36	6	12%	3
37	-17	0.6%	2
38	1	2.1%	1
39	-23	0.5%	23
40	-13	7.7%	18

Next records:
No.	structure	TRPML1 agonist	D2 ag	Six1-Eya2 inh
41	CC(C)N(Cc1nnc(-c2ccccc2Cl)o1)C(=O)COc1cccc(Cl)c1	0.8	-0.2	13
42	CC(C)Sc1nc2c([nH]c3ccccc32)c(=O)n1C	3.0	-1.9	4
43	O=C(NP(=O)(N1CCCC1)N1CCCC1)C1=C(N2CCOCC2)/C(=C/c2cccc([N+](=O)[O-])c2)CC1	0.0	2.0	-8
44	Cc1cc(OCC(=O)NC(Cc2c[nH]c3ccccc23)C(=O)O)ccc1Cl (stereo unspecified)	1.4	·	·
45	C/C=C/c1ccc(OCC(=O)Nc2cc(C(F)(F)F)ccc2N2CCOCC2)c(OC)c1	-0.4	-0.2	0
46	O=C(C1COc2ccccc2O1)N1CCN(c2ccccc2Cl)CC1 (stereo unspecified)	-0.1	0.5	7
47	COc1ccc(NC(=O)CN2C(=O)NC3(CCCc4ccccc43)C2=O)c(OC)c1 (stereo unspecified)	0.5	3.1	2
48	COc1cc2c(C)nc3c(cnn3-c3ccccc3)c2cc1OC	2.4	-5.4	-4
49	CCOC(=O)c1cc(-c2ccccc2)sc1NC(=O)CN1C(=O)NC(CC)(c2ccccc2)C1=O (stereo unspecified)	0.8	0.4	10
50	O=C(NCc1ccco1)Nc1nnc([C@H]2C[C@H](O)[C@@H](CO)O2)s1	-0.4	-5.4	7

No.	D2 potentiator	PINK1 modulator	TRPML1 inh
41	-6	3.3%	7
42	-5	4.1%	18
43	1	11%	-2
44	·	-0.5%	17
45	6	-0.4%	6
46	-1	1.0%	14
47	4	-0.9%	21
48	-5	1.8%	-14
49	-9	·	0
50	-6	1.9%	·

Pulled by compound from the list above, three records:
No.	structure	TRPML1 agonist	D2 ag	Six1-Eya2 inh
49	CCOC(=O)c1cc(-c2ccccc2)sc1NC(=O)CN1C(=O)NC(CC)(c2ccccc2)C1=O (stereo unspecified)	0.8	0.4	10
43	O=C(NP(=O)(N1CCCC1)N1CCCC1)C1=C(N2CCOCC2)/C(=C/c2cccc([N+](=O)[O-])c2)CC1	0.0	2.0	-8
48	COc1cc2c(C)nc3c(cnn3-c3ccccc3)c2cc1OC	2.4	-5.4	-4

No.	D2 potentiator	PINK1 modulator	TRPML1 inh
49	-9	·	0
43	1	11%	-2
48	-5	1.8%	-14

(next part)
No.	structure	TRPML1 agonist	D2 ag	Six1-Eya2 inh
51	O=C(NCS(=O)(=O)c1ccccc1)c1ccccc1	-0.3	-0.9	6
52	Cc1ccc(NC(=O)OCc2cc(-c3ccccc3)on2)cc1	4.5	-0.3	0
53	CCOC(=O)N1CCN(c2nc(-c3cccs3)cc(C(F)(F)F)n2)CC1	2.5	-1.7	2
54	Cc1ccc(-n2ncc3c(=O)[nH]c(SCC(=O)NCC4CCCO4)nc32)cc1 (stereo unspecified)	0.2	0.2	0
55	Cc1ccccc1-c1cc2c(nn1)-c1ccccc1C2=O	-0.6	-15	-12
56	Cc1ccc2nc(NCc3ccccc3)c(C=O)c(=O)n2c1	-0.5	0.1	-4
57	O=C(Nc1ccc2c(c1)OCCO2)Nc1ccc2c(c1)OCO2	-1.0	3.7	-12
58	O=C(CN(c1ccccc1F)S(=O)(=O)c1ccccc1)Nc1ccc2c(c1)OCCO2	0.4	-5.7	-9
59	O=C(O)c1ccc2c(c1)C(=O)N(c1ncccn1)C2=O	0.2	-3.3	11
60	CCc1ccc(O)c(C(=O)c2cnc3cc(-c4ccc(C)cc4)nn3c2)c1	-0.5	·	·
61	COc1ccc(N2C(=O)C(Cl)=C(NCc3ccccc3)C2=O)cc1	-0.6	-2.8	-14
62	O=C(c1ccc(Cl)cc1)N1CCOc2ccccc21	-0.2	7.5	-10

No.	D2 potentiator	PINK1 modulator	TRPML1 inh
51	-10	-1.1%	-2
52	10	3.2%	22
53	3	6.9%	-1
54	-2	1.1%	4
55	-39	-0.6%	7
56	-1	1.6%	14
57	-1	-0.6%	7
58	-3	14%	13
59	-6	2.9%	6
60	·	0.2%	2
61	?	0.3%	2
62	-4	2.0%	-28
